PK Bst = alters activity of Bacillus stearothermophilus pyruvate kinase | 51,000 compounds, 1.2% hits | partly purified Bacillus stearothermophilus pyruvate kinase, luminescence ATP production; ribose 5-phosphate activator present at AC10 | Potency, µM | AID 361; in the data active means potency below about 11 µM; inconclusive means mostly about 12 µM to 25 µM; inactive means weaker than that;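 the screen sought inhibitors and activators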;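 note: potency is the fitted concentration of half-maximal effect; scaled between full activation by ribose 5 phosphate and full inhibition by luteolin; about four in five hits inhibit and the cells do not say which; series up to 57 µM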
YjeE inh = inhibitors of E. coli YjeE (TsaE); purified YjeE, fluorescence polarisation of a bound ADP probe; Potency, µM; 71,000 compounds, 0.05% hits; active = well fitted falling curve; inconclusive = weaker or top-dose-only fall, or a rising curve; inactive = flat or poorly fitted curve;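 note: top concentration of the series not given in the record; excess ADP was the control for the full effect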
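Fluorescence polarization of a BODIPY Texas Red–ADP probe (2 uM) bound to purified YjeE (10 uM) was read after 15 min room-temperature incubation with compounds. Loss of polarization marks inhibitors; ADP serves as titrated control.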
* marks the source's active call; other numbers are inactive results; i = inactive; u = inconclusive; x = no result given. This is a subset. The share of hits here may be higher or lower than overall.

PK Bst	YjeE inh	mol
>57	i	CCc1nnc(NC(=O)CCC(=O)N2CCN(Cc3cc(F)ccc3OC)CC2)s1
x	i	CCC(=O)O[C@H](CC(=O)O)C[N+](C)(C)C
>57	i	COc1ccc(S(=O)(=O)N2CCCC2C(=O)Nc2nnc(-c3cccnc3)s2)cc1 (configuration not stated)
>57	i	CN=C1c2ccccc2CN1c1cccc(C(=O)OC)c1
x	i	Cc1ccc2c(c1)NC(=O)C(CC(=O)NCCCN1CCN(c3cc(C)ccc3C)CC1)O2 (configuration not stated)
>57	i	CCOC(=O)c1cc2nc(Nc3ccc(OC)cc3)sc2s1
>57	i	CC1CCN(C(=O)CSc2nnc(CNC(=O)COc3ccc(Cl)cc3)o2)CC1
x	i	Cc1ccn2c(-c3csc(NCc4ccco4)n3)c(C)nc2c1
>57	i	C=CCNC(=O)CN(c1ccc(F)c(Cl)c1)S(C)(=O)=O
x	i	O=C(Cn1ncc2c(=O)oc3ccccc3c21)NCCN1CCN(c2ccccc2F)CC1
x	i	O=C(Nc1ccccc1)N1CC[C@@]2(CCCN(C(=O)c3ccco3)C2)C1
x	i	COC(=O)C1C(=O)c2c([nH]c(C(=O)OC3CCCCCC3)c2C)CC1C (configuration not stated)
>57	i	O=C(OCC(=O)N1CCOCC1)c1ccc2c(c1)OCCO2
>57	i	CCOc1ccc(-n2c(SCC(=O)Nc3ccc(OC)cc3)nc3c(c2=O)SCC3)cc1
>57	i	CCOC(=O)CC(=O)c1cc(OC)c(OC)c(OC)c1
>57	i	COCCn1nnnc1C(c1cc2ccc(OC)cc2[nH]c1=O)N1CCN(C2CCCCC2)CC1 (configuration not stated)
>57	i	COc1ccccc1N1CCN(C(c2cc3cc(C)ccc3[nH]c2=O)c2nnnn2C2CCCC2)CC1 (configuration not stated)
>57	i	COc1ccccc1-c1c(NC(=O)c2ccco2)n(-c2ccccc2)nc(C)c1=O
x	i	O=C(CSc1nnc(Cn2c(=O)sc3ccccc32)n1-c1ccccc1)Nc1nccs1
x	i	CC1CCCC(N2CCN(C(=O)c3ccc(F)cc3)CC2)C1 (configuration not stated)
>57	i	Cn1c(=O)c2nc(NCc3ccccc3)cnc2n(C)c1=O
>57	i	Cc1ccc(-c2nnc(CSc3nc(C)nc4sc(C)c(C)c34)o2)cc1
>57	i	CC(C(=O)NCC1(c2ccccc2)CCCC1)N1CCOCC1 (configuration not stated)
>57	i	COc1cccc(-c2nc(=S)c3c(n2Cc2ccco2)CCCC3)c1
>57	i	CCOC(=O)C1=C(C)NC(C)=C(C(=O)OCC)C1c1ccc(OC)cc1
>57	i	CC1CCN(C(=O)CSc2ccc(-c3ccc(F)cc3)nn2)CC1
x	i	S=c1nc(-c2cccc(Br)c2)[nH][nH]1
x	i	CC(=O)C1=C(C)NC(SCC(=O)c2ccc(Cl)cc2Cl)=C(C#N)C1c1ccco1 (configuration not stated)
x	i	CCNC(=O)COc1ccc2ccccc2c1
x	i	CCOC(=O)c1cccc(NC(=O)C2CCC(CNc3c(N4CCOCC4)c(=O)c3=O)CC2)c1 (configuration not stated)
>57	i	O=S(=O)(c1ccc(Cl)c(C(F)(F)F)c1)N1CCN(CC(O)COCC2CCCO2)CC1 (configuration not stated)
x	i	CCOc1ccccc1N1C(=O)CC(Nc2ccc(N3CCOCC3)cc2)C1=O (configuration not stated)
x	i	O=C(O)c1cc(-c2ccc(-c3ccc(-c4cc(C(=O)O)c5cc(Cl)ccc5n4)cc3)cc2)nc2ccc(Cl)cc12
>57	i	O=C(CCCCn1c(=O)c2ccccc2n(Cc2ccc(F)cc2)c1=O)NCc1ccco1
>57	i	O=C(Nc1ccc(-c2noc(CCc3ccccc3)n2)cc1)c1cccnc1
>57	i	O=C(NCCN1CCOCC1)NC1(C(F)(F)F)Oc2ccc(Cl)cc2O1 (configuration not stated)
u	i	CN(c1cccc(NC(=O)Nc2cccc(Cl)c2)c1)S(C)(=O)=O
>57	i	CCCn1c(C(O)c2cc(OC)ccc2OC)nc2ccccc21 (configuration not stated)
>25.6	x	CCCc1nnc(SCc2ccc(OCC)cc2)n1N
>57	i	COC(=O)CSc1nnc(CNc2ccc(Cl)cc2)n1Cc1ccccc1
>57	i	c1ccc(C(c2nnnn2C2CCCCC2)N2CCc3ccccc3C2)nc1 (configuration not stated)
x	i	Cc1noc(C)c1S(=O)(=O)N(CC(=O)N1CCCCCC1)c1ccc(C(C)C)cc1
x	i	OC(Cc1cccnc1)(c1ccccc1)c1ccccc1
x	i	COc1ccccc1OC[C@H](O)CO
>57	i	O=C(c1sccc1-n1cccc1)N1CCCC1
>57	i	COc1cccc(NC2CC(=O)N(CCc3ccccc3)C2=O)c1 (configuration not stated)
>57	i	O=C(C(F)C(F)(F)F)N1CCN(c2ccccc2)CC1 (configuration not stated)
>57	i	CCCCCOC(=O)c1[nH]c2c(c1C)C(=O)C(C(=O)OC)C(C)C2 (configuration not stated)
>57	i	O=C(Nc1ccccc1C(=O)N1CCCCCC1)c1cccc(S(=O)(=O)N2CCOCC2)c1
>57	i	CC(=O)NC1(c2ccccc2)CCN(c2nc(C)cc(C)n2)CC1

One compound at a time (already shown). Screens in order: PK Bst | YjeE inh
Record of O=C(C(F)C(F)(F)F)N1CCN(c2ccccc2)CC1 (configuration not stated) → >57 | i
Record of O=C(Nc1ccccc1C(=O)N1CCCCCC1)c1cccc(S(=O)(=O)N2CCOCC2)c1 → >57 | i
Record of Cc1noc(C)c1S(=O)(=O)N(CC(=O)N1CCCCCC1)c1ccc(C(C)C)cc1 → x | i
Record of COc1cccc(NC2CC(=O)N(CCc3ccccc3)C2=O)c1 (configuration not stated) → >57 | i
Record of CC(=O)NC1(c2ccccc2)CCN(c2nc(C)cc(C)n2)CC1 → >57 | i

Later entries
PK Bst	YjeE inh	mol
>57	i	CCOC(=O)c1ccccc1NC(=O)c1c(F)c(F)c(F)c(F)c1F
>57	i	CC(=O)Cc1nsc(NC(=O)c2ccccc2)n1
>57	i	COc1ccc(-c2nnc3ccc(SCC(=O)N4CCN(c5ccccc5)CC4)nn23)cc1
>57	i	Cc1ccc(S(=O)(=O)N2CCN(C)CC2)cc1-c1nnc2c3ccccc3c(C)nn12
>57	i	CCOC(=O)CCc1c(C)nc2cc(-c3ccc(Cl)cc3)[nH]n2c1=O
x	i	O=C(CC1Oc2ccc(Cl)cc2NC1=O)NC1CCCCCC1 (configuration not stated)
>57	i	CCOC(=O)c1oc2cccc(OC(C)=O)c2c1C
x	i	CCNc1ncc2nc(-c3ccc(OC)cc3)c(=O)n(C[C@H]3CCCO3)c2n1
>57	i	COC(=O)c1ccccc1NC(=O)CN1CCN(C(=O)c2ccco2)CC1
x	i	N=C(N)S[C@H]1c2ccccc2-c2cc([N+](=O)[O-])ccc21
>57	i	CCOC(=O)N1CCN(CC(=O)N2c3ccccc3CC2C)CC1 (configuration not stated)
>57	i	O=C(C1CCC1)N1CCc2cc(S(=O)(=O)NCc3cccnc3)ccc21
x	i	CCN1CCN(c2cc(C)c3cc(NC(=O)Cc4ccc(OC)c(OC)c4)ccc3n2)CC1
x	i	Cc1ccc(CNC(=O)c2cc3c(=O)n(C)c4ccccc4c3n2C)o1
>57	i	NC1=NC2=C(CCCC2)C2(CCCCC2)S1
>57	i	COc1ccc(C(=O)CSc2nnc(-c3ccco3)n2CC2CCCO2)cc1 (configuration not stated)
x	i	Cc1n[nH]c(C)c1N1C(=O)c2cccc3cc(Br)cc(c23)C1=O
>57	i	CNC(=O)CSc1nnnn1CCCOC
>25.6	x	CCOC(=O)C(C)Oc1ccc2c(C)cc(=O)oc2c1C(C)=O (configuration not stated)
>57	i	COCCn1c(SCCCc2ccccc2)nc2c1c(=O)[nH]c(=O)n2C
>57	i	CCc1nnc(NC(=O)c2ccc(S(=O)(=O)NC3CCCCC3)cc2)s1
>57	i	COC(=O)n1c(=O)oc2cc(S(=O)(=O)N3CCOCC3)ccc21
>57	i	NC(=O)C1CCN(C(=O)C23CC4CC(CC(C4)C2)C3)CC1
x	i	CCCc1nc(SCC(=O)c2ccc(OC)cc2)c2c(=O)n(C)c(=O)n(C)c2n1
x	i	CCCc1ncc(C(=O)c2ccc(OC)cc2)n1C
>25.6	x	COc1ccc(C(=O)NCC(=O)n2nc(C)cc2C)cc1OC
>57	i	CC(C)n1c(SCC(=O)Nc2ccc3c(c2)OCO3)nc2c1c(=O)n(C)c(=O)n2C
>57	i	CCc1cc2c(cc(C(=O)O)n2C)s1
x	i	CCOC(=O)CSc1nnc(-c2ccc(OC)cc2OC)o1
x	i	CC1CCN(C(=O)CSc2nnc(Cc3cc(=O)[nH]c(=O)[nH]3)n2-c2ccc(Cl)cc2)CC1
>57	i	CC(C)C(=O)Nc1ccc(C(=O)NC2CCSC2=O)cc1 (configuration not stated)
>57	i	O=c1nc2n(c3cc(Cl)c(S(=O)(=O)N4CCOCC4)cc13)CCCCC2
>57	i	O=C(CN1C(=O)c2ccccc2S1(=O)=O)Nc1ccccc1C(=O)NCc1ccco1
>57	i	CCn1c(=O)n(CC)c2cc(S(N)(=O)=O)c(C)cc21
>57	i	Cn1cc(CC(=O)N2CCN(c3ccc(Cl)cc3)CC2)c2ccccc21
>57	i	CC(C)(C)n1cnc2cc(NS(=O)(=O)c3ccccc3)ccc21
x	i	COc1ccc(OC)c(-n2c(SCC(=O)N3CCc4ccccc43)nc3c(c2=O)SCC3)c1
x	i	CN1C(=O)CSc2ccc(C(=O)O)cc21
>57	i	CN(Cc1ccccc1)C(=O)COC(=O)c1ccc2c(c1)OCO2
>57	i	COc1ccc(CC(=O)Nc2ccc(S(=O)(=O)NCC3CCCO3)cc2)cc1 (configuration not stated)
x	i	Cc1ccc(C)c(N2CCN(C(=O)c3cc4ccccc4oc3=O)CC2)c1
>57	i	Cc1ccc2c(c1)-c1ccccc1S(=O)(=O)N2
x	i	Cc1nc2cnc(N3CCOCC3)nc2n(CCc2ccccc2)c1=O
>57	i	O=C(CN1C(=O)COc2ccccc21)N(Cc1cccnc1)Cc1cccc(F)c1
x	i	COC(=O)N(C)c1nc2ccccc2s1
>57	i	O=C(Nc1ccc(-n2nncc2-c2ccco2)cc1)c1cc2ccccc2oc1=O
>57	i	COc1ccc2cc(CN(CCO)C(=O)c3ccc(Br)cc3)c(=O)[nH]c2c1
>57	i	CCN(CC)C(=O)COc1ccc2oc(C)c(C(=O)OC)c2c1
x	u	CC1N(C)c2cc(NC(=O)c3ccco3)ccc2C1(C)C (configuration not stated)
x	i	O=C(C1CCN(c2nnc(-n3cccc3)s2)CC1)N1CCOCC1

The results go on.
PK Bst	YjeE inh	mol
x	i	CC(C)(C)c1cc(O)c(C(C)(C)C)cc1O
i	i	Cc1ccc2ccccc2c1COC(=O)c1nonc1N
x	i	COc1ccc(-c2nc3cnc(Oc4ccccc4)nc3n(CCC#N)c2=O)cc1
x	i	COc1cc(-c2nnc(SCc3c(F)cccc3Cl)o2)cc(OC)c1OC
>57	i	Cc1cc(NC(=O)c2cccnc2)ccc1NC(=O)c1ccco1
>57	i	CCOc1ccccc1-n1c(SCC(=O)NC)nnc1-c1ccco1
x	i	CCOC(=O)N1CCN(C(=O)C2COc3ccccc3O2)CC1 (configuration not stated)
x	i	Cc1ccc(-n2c3c(cc(C(=O)NCc4ccco4)c2=O)C(=O)CC(C)(C)C3)cc1
x	i	CC(=O)/C(=N\N=C(N)N)c1ccccc1
>57	i	Cn1cccc1C(C(=O)NC1CCCCC1)N(C(=O)Cc1cccs1)c1ccc2c(c1)OCO2 (configuration not stated)
>57	i	COCCNc1ncnc2c1cnn2Cc1ccc(Cl)cc1
x	i	O=C1C2=C(Nc3ccccc3SC2c2ccco2)c2ccccc21 (configuration not stated)
>57	i	CC(C)(O)C#Cc1ccc(C(=O)NCc2cccs2)s1
x	i	O=C(c1cc2nc(-c3ccco3)cc(C(F)(F)F)n2n1)N1CCCCCC1
>25.6	x	CCC(c1c(C)n(C)n(-c2ccccc2)c1=O)c1c(C)n(C)n(-c2ccccc2)c1=O
>57	i	CCC(C(=O)O)n1c(C(F)(F)F)nc2ccccc21 (configuration not stated)
>57	i	COCCSc1nnc(NC(=O)Cc2cccs2)s1
x	i	CCCC(=O)N1CCc2cc(-c3nc(N)sc3C)ccc21
>25.6	x	COc1ccc(C(=O)N2CCC(N3CCN(c4ccccc4)CC3)CC2)cc1OC
>57	i	COc1ccc(-n2c(=O)c3ccccc3n(CC(=O)Nc3cc(C)on3)c2=O)cc1OC
x	i	Cc1cnc(C(=O)OCC(=O)N2CCc3ccccc3C2)cn1
x	i	Cn1c(=O)c2c(SCC(N)=O)nc(CC(C)(C)C)nc2n(C)c1=O
>57	i	CCOC(=O)C1=C(C)OC(N)=C(C#N)C1c1cc(OC)c2c(c1)OCO2 (configuration not stated)
x	i	Cc1ccc(C)c(NC(=O)c2ccc3c(c2)N(Cc2ccc(F)cc2)C(=O)CS3=O)c1 (configuration not stated)
>57	i	CCOC(=O)C(NC(=O)CC(C)C)(Nc1cc(C)on1)C(F)(F)F (configuration not stated)
>57	i	O=C(O)CN1CCN(Cc2ccccc2)C1=O
x	i	COc1cc2ccc(=O)oc2c(O)c1O
x	i	COC(=O)c1sc(NC(=O)c2csc3c2CCCC3)nc1C

Arranged by molecular weight (ascending): three of the compounds above.
PK Bst	YjeE inh	mol
x	i	Cc1cnc(C(=O)OCC(=O)N2CCc3ccccc3C2)cn1
>57	i	CCOC(=O)C(NC(=O)CC(C)C)(Nc1cc(C)on1)C(F)(F)F (configuration not stated)
x	i	Cc1ccc(C)c(NC(=O)c2ccc3c(c2)N(Cc2ccc(F)cc2)C(=O)CS3=O)c1 (configuration not stated)

High-throughput results as filed in PubChem BioAssay.
